nsP2pro primary – inhibitors of chikungunya virus nsP2 protease. Q8JUX6. FRET peptide cleavage, nsP2pro, fluorescence 1 h. AID 1964107. Potency, µM (doses to about 24.9 µM), inactives show at the top dose activity change, negative = inhibition, usual class: inhibitors. 31,000 compounds, 1.1% hits; active means well fitted inhibition curve with a large enough effect; inconclusive means small, poorly fitted or top-dose-only effect; inactive means no such curve, though single readings can be large or run the other way; further: nearly all actives have a fitted effect of over 60% in size; a reference inhibitor and vehicle were the controls
* marks the source's active call; other numbers are inactive results; i = inactive; ? = inconclusive; & = joins results of further samples; [ ] = another dose, or the depositor's remark. On the % scale 0 is the no-effect control and ±100 the full control effect; potency means the concentration at half of the fitted maximal effect. Some of the compounds tested; count on the stated rates, not on these rows.

| mol | nsP2pro primary |
| --- | --- |
| CN1C(=O)Cc2cc(S(=O)(=O)NCc3ccccc3Cl)ccc21 | ? |
| COc1cccc(C(C)N(C)C(=O)c2cc(Cn3ccnc3C(C)C)[nH]n2)c1 (configuration not stated) | i |
| CCCC(=O)O[C@]1(C(=O)COC(=O)CC)CC[C@H]2[C@@H]3CCC4=CC(=O)CC[C@]4(C)[C@H]3[C@@H](O)C[C@@]21C | -2.3%[10 µM] |
| Cc1ccc(NC(=O)COc2ccc(-c3nn(C)c(=O)c4ccccc34)cc2)c(C)c1 | -9.8% |
| COc1ccc(Cl)cc1NC(=O)C1CCN(c2ncnc3c2nc2n3CCCCC2)CC1 | -3.5% |
| Cc1cccc(C(=O)N2CCc3cc(-c4nc(NC(=O)Cc5ccc6c(c5)OCO6)sc4C)ccc32)c1 | -20.1% |
| C=C(CCO)C(=O)OCC1OCC(OC(=O)C(=C)CCO[C@@H]2O[C@H](CO)[C@@H](O)[C@H](O)[C@H]2O)C(O)C1O (some centres not stated) | -8.4%[10 µM] |
| CCCn1ncc(CN2CCC(Cc3cccc(C(F)(F)F)c3)(C(=O)OCC)CC2)c1C | -0.7% |

(next part)
| mol | nsP2pro primary |
| --- | --- |
| CN1C(=O)[C@]23CC4C(C)(C)[C@@]5(C[C@@]41CN2CC[C@@]3(C)O)C(=O)Nc1c5ccc2c1OC=CC(C)(C)O2 (some centres not stated) | 19.2%[10 µM] |
| O=C(Cn1cc(C(=O)C(F)(F)F)c2ccccc21)N1CCCCCC1 | -22.4% |
| CCOc1ccccc1NC(=O)CSc1c2c(nc3ccc(Cl)cc13)CCCC2 | -4.3% |
| c1c(C2CC2)nnn1C1CNC1 | 8.91µM* |
| O=c1[nH]c(=O)n([C@H]2C[C@H](O)[C@@H](CO)O2)cc1F | 2.8% |
| O=C(c1ccc2nccnc2c1)N1CCCCC1 | 3.1% |
| CCC(=O)N1CCc2cc(S(=O)(=O)NCCC(=O)Nc3ccc(CC)cc3)ccc21 | -18.4% |
| CCN(CC)c1nc(-c2ccccc2Cl)c2cc(Br)ccc2n1 | -13.9% |

(cont.)
| mol | nsP2pro primary |
| --- | --- |
| CCc1ccc(-n2c(=O)c3sc4ccccc4c3n(CC(=O)N3CCCC3)c2=O)cc1 | -25.4% |
| COc1ccc(/C=C2/C(=O)Nc3ccccc32)cc1O | i |
| CN(C)C[C@@H]1CN(c2ccncn2)C[C@H]1NC(=O)Cc1cccs1 | 1.2% |
| CC1=C(C(=O)NC2CCCCC2)C(c2ccccc2Br)N=C(Nc2nc3ccccc3o2)N1 (configuration not stated) | -10.3% |
| CO[C@H]1C[C@@H]2CC[C@@H](C)[C@@](O)(O2)C(=O)C(=O)N2CCCC[C@H]2C(=O)O[C@H]([C@H](C)C[C@@H]2CC[C@@H](OCCO)[C@H](OC)C2)CC(=O)[C@H](C)/C=C(/C)[C@@H](O)[C@@H](OC)C(=O)[C@H](C)C[C@H](C)\C=C/C=C\C=C/1C | -21.1%[10 µM] |
| CC/C(=C(\c1ccccc1)c1ccc(OCCN(C)C)cc1)c1ccccc1 | 117.4%&134.8%&118.5%[activator] |
| Fc1ccc(Nc2nc(-c3ccccc3F)no2)cc1 | -0.9% |
| O=S(=O)(c1ccc2c(c1)OCCO2)N1CCN(S(=O)(=O)c2cccc[n+]2[O-])CC1 | -4.0% |

(next part)
| mol | nsP2pro primary |
| --- | --- |
| CCOc1ccccc1-n1c(N)c(C(=O)OC)c2nc3ccccc3nc21 | -20.5% |
| CC1=C(C)C(=O)OC(C(C)C2CCC3C4CC=C5CC(OC6OC(COC7OC(CO)C(O)C(O)C7O)C(O)C(O)C6O)CC(O)C5(C)C4CCC23C)C1 (configuration not stated) | -4.7%[10 µM] |
| O=C(OCC#CCSc1nnc(-c2ccc3ccccc3c2)o1)c1cc2ccccc2s1 | ? |
| Cc1ccc(N(CC(=O)Nc2ccc(Br)cc2)S(=O)(=O)c2cccs2)cc1 | 3.6% |
| Cc1ccc(NC(=O)CN2C(=O)CSc3ccc(S(=O)(=O)N4CCCC4)cc32)c(C)c1 | -8.8% |
| COc1cc(/C=C2\CC[C@H]3COC[C@@H](c4cc(F)c(F)c(F)c4)N3C2=O)ccc1-n1cnc(C)c1 | 88.6%[activator] |
| CCCc1ccc(CN2CCC(c3nnc(Cn4ccnc4)n3C3CC3)CC2)o1 | -1.2% |
| O=C(Nc1ccc(OCc2cc(=O)n3ccsc3n2)cc1)c1ccc(F)cc1 | -14.3% |

Next part.
| mol | nsP2pro primary |
| --- | --- |
| COC(=O)C1=C(C)NC(C)=C(C(=O)O[C@@H]2CCCN(Cc3ccccc3)C2)[C@@H]1c1cccc([N+](=O)[O-])c1 | 18.2% |
| CCCNC(=O)NCC1c2cc(OC)c(OC)cc2CCN1C(=O)NCC (configuration not stated) | 4.9% |
| Cc1cnn(CCC(=O)NC2CCc3nnc(C)n3CC2)c1 (configuration not stated) | i |
| CC(C)CC(=O)N1C(C(=O)NCC2CCCO2)COC12CCC(C)CC2 (configuration not stated) | -6.7% |
| O=C(Cc1ccc(F)cc1)N1CCC2(COc3ccncc3[S+](=O)([O-])N2)C1 (configuration not stated) | 3.0% |
| O=C(c1ccc(Cl)nc1)N1CCC(C(=O)N2CCC(N3CCCC3=O)CC2)CC1 | -11.2% |
| CCC1CCCCN1C(=O)c1sc(-n2nc(C)c(Cc3ccccc3)c2C)nc1C (configuration not stated) | -24.9% |
| CCOc1ccc(C(=O)Nc2ccc3oc(-c4ccncc4)nc3c2)cc1 | -15.0% |

Exported field by field: part of the list above.
O=C(c1ccc(Cl)nc1)N1CCC(C(=O)N2CCC(N3CCCC3=O)CC2)CC1
  nsP2pro primary: -11.2%

CCC1CCCCN1C(=O)c1sc(-n2nc(C)c(Cc3ccccc3)c2C)nc1C (configuration not stated)
  nsP2pro primary: -24.9%

New compounds follow.
| mol | nsP2pro primary |
| --- | --- |
| CCC(C(=O)Nc1ccc(C(C)=O)cc1)n1cnc2nc3c(cc2c1=O)CCCC3 (configuration not stated) | -7.1% |
| O=C1N2CCCC2CN1C1CCN(Cc2ccsc2)CC1 (configuration not stated) | -0.9%[39.2 µM] |
| CCc1ccc(S(=O)(=O)N2[C@@H]3CC[C@H]2CC(NC(=O)c2ccc(F)cc2)C3)cc1 (some centres not stated) | 0.7% |
| CC(=O)N1CCN(c2ccc(NCc3ccc(C)cc3)cc2)CC1 | 3.2% |
| COc1ccccc1OCC(O)CO (configuration not stated) | 2.9% |
| CCN(CC)C(=O)C1CCN(S(=O)(=O)c2c(C)noc2/C=C/c2cccc(OC)c2)CC1 | -10.1% |
| CN1c2cc(C(=O)NC3CCCCCC3)ccc2C(=O)N2CCCC21 (configuration not stated) | -6.4% |
| COc1cccc(-c2ccc3ncnc(NCc4cccs4)c3c2)c1 | i |

Exported field by field: 3 of the compounds above.
O=C1N2CCCC2CN1C1CCN(Cc2ccsc2)CC1 (configuration not stated)
  nsP2pro primary: -0.9%[39.2 µM]
CCC(C(=O)Nc1ccc(C(C)=O)cc1)n1cnc2nc3c(cc2c1=O)CCCC3 (configuration not stated)
  nsP2pro primary: -7.1%
COc1ccccc1OCC(O)CO (configuration not stated)
  nsP2pro primary: 2.9%

Additional results
SMILES	nsP2pro primary
NC(=O)c1ccnc2c(O)cccc12	i
Nc1cccc(OCCn2c(CCNC(=O)C3CCCCC3)nc3ccccc32)c1	i
CCOC(=O)C1CCCN(S(=O)(=O)c2ccc(F)c(C(=O)Nc3ccc(F)c(F)c3)c2)C1 (configuration not stated)	-15.6%
CN(C)c1cccc(C(=O)Nc2ncc(-c3cnn(C)c3)c3c2OCC3)c1	?
O=C(NCCCCCCCCNC(=O)C(Cl)Cl)C(Cl)Cl	11.6%
O=C(Cc1ccc(Cl)cc1)Nc1ccc2oc(-c3ccccc3F)nc2c1	-15.2%
COc1ccc(-c2nc(C(=O)Nc3cccc(C(C)=O)c3)nn2-c2ccc(Cl)cc2)cc1	-14.7%
CCCCNS(=O)(=O)c1ccc2nc(-c3cccnc3)cc(C(=O)NC(C)C)c2c1	-16.3%
CCO[C@H]1CN(C(=O)C(C)(C)Oc2ccc3c(c2)CCC3)C[C@@H]1O	-2.7%
CC(=O)CC/C=C(\C)CC/C=C(\C)CC/C=C(\C)CCC=C(C)C	-4.4%
COc1ccc(C2=Nn3c(nnc3-c3cc(OC)cc(OC)c3)SC2)cc1	-1.9%
CC(=O)c1ccccc1-c1ncc(C)c(NCC2CCN(c3cccnc3)CC2)n1	-2.1%
COc1ccc(OC)c(-c2nc3c(C#N)c[nH]n3c2NC2CCCCC2)c1	-23.6%
COc1ccccc1C1=Nn2c(nnc2-c2cccc(OC)c2OC)SC1	2.8%
COc1cc(F)c(S(=O)(=O)N2CCCN(S(=O)(=O)c3ccc4c(c3)OCCO4)CC2)c(F)c1	-5.2%
N#Cc1cc(CN2CCC(Nc3ncnc4sc(Cl)cc34)CC2)ccc1F	-22.0%
COC(=O)C1=CO[C@@H](O[C@@H]2O[C@H](CO)[C@@H](O)[C@H](O)[C@H]2O)[C@H]2[C@@H]1[C@H](O)[C@H](O)[C@]2(C)O	9.5%[10 µM]
COc1cccc2c1cc1c(=O)n(CC(=O)NC3CC3)nc(C)n12	-5.5%
CC(CNC(=O)c1ccc2c(c1)nc1n2CCOC1)c1ccccc1 (configuration not stated)	-3.7%
CC1(C)C[C@H]2C3=CCC4[C@@]5(C)CC[C@H](O[C@H]6O[C@H](C(=O)O)[C@@H](O)[C@H](O)[C@H]6O[C@H]6O[C@H](CO)[C@@H](O)[C@H](O)[C@H]6O[C@@H]6O[C@H](CO)[C@@H](O)[C@H](O)[C@H]6O)[C@](C)(CO)C5CC[C@@]4(C)[C@]3(C)CC[C@@]2(C)[C@H](O[C@@H]2OC[C@H](O)[C@H](OC3O[C@H](CO)[C@@H](O)[C@H](O)[C@H]3O)[C@H]2O)[C@@H]1O (some centres not stated)	1.0%[5.1 µM]

Continued:
SMILES	nsP2pro primary
CC(C)CC(C(=O)NCC1CCN(Cc2ccc(F)cc2)CC1)N1Cc2ccccc2C1=O (configuration not stated)	-0.5%
CC(C)COc1ccc(C(=O)NCC2OCCc3ccccc32)cc1 (configuration not stated)	-21.0%
CCCCCS(=O)(=O)c1oc(-c2cccs2)nc1S(=O)(=O)c1ccc(C)cc1	-16.3%
Cc1ccc(CSc2nnc(-c3cccc4ccccc34)o2)cc1	-32.6%
Cc1nc2cnccn2c1C(=O)NCc1ccccc1	-7.3%[39.2 µM]
CN(Cc1ccccc1)C(=O)C1CCN(Cc2cccc3ccccc23)CC1	0.8%
O=C1CN=C(c2ccccc2Cl)c2cc(Br)ccc2N1	-2.7%
CC1CC2C3CCC4=CC(=O)C=CC4(C)C3(F)C(O)CC2(C)C1(O)C(=O)COC(=O)c1cccc(S(=O)(=O)O)c1 (configuration not stated)	-0.4%
Cc1nc(-c2cccnc2)sc1C(=O)Nc1ccccc1-c1cn2c(CN3CCOCC3)csc2n1	-2.9%
COc1ccc(-c2cn3c(n2)sc2cc(C(=O)NCCCN4CCN(C)CC4)ccc23)cc1	143.3%[activator]
Cc1ccc(Cl)cc1NC(c1ccc(F)cc1)c1nnc(-c2ccccc2)o1 (configuration not stated)	4.1%
Oc1cccc2cc(C3CC3)cnc12	i
Cc1c(C(=O)N(C)CC2CCCO2)[nH]c2c1C(=O)CC(c1ccco1)C2 (configuration not stated)	?
CC(=O)Nc1ccc(S(=O)(=O)NC2(C(F)(F)F)NC(=O)N(c3ccc(Cl)cc3)C2=O)cc1 (configuration not stated)	-13.9%
CCOC(=O)c1ccc(NC(=O)c2cnn3c(=O)c4c(n(CC)c23)CCN(Cc2ccc(OC)cc2)C4)cc1	-11.2%
CCn1cc(C(=O)NCCc2ccc(Cl)cc2)c(=O)c2cc(S(=O)(=O)N3CCC(C)CC3)ccc21	-24.2%
O=C(/C=C/c1ccc(O)cc1)O[C@H]1[C@H](OC2CCCCC2O)O[C@H](CO)[C@@H](O)[C@@H]1O (some centres not stated)	41.5%[10 µM]
Cc1c(Cl)c(=O)oc2cc(OP(=O)(OCCCl)OCCCl)ccc12	2.0%
COc1cc(/C=C/C(=O)O)cc(OC)c1OC	-18.8%
CC(C)COc1cc(=O)n2c(c1C(=O)NCCCN1CCOCC1)CCCCC2	i

The list goes on:
SMILES	nsP2pro primary
CC/C(=C(/c1ccc(O)cc1)c1ccc(OCCNC)cc1)c1ccccc1	65.0%[activator]
COc1ccc(CCNC(=O)CCCn2nc(C)c3sc4ccccc4c3c2=O)c(OC)c1	-23.2%
CCN(CCCNC(=O)c1nn(-c2ccc(OC)cc2)c(=O)c2c1c1ccccc1n2C)c1cccc(C)c1	-21.2%
Cc1cc(C)n2nc(CNC(=O)c3ccc(Cl)cc3)nc2n1	-12.0%
COc1c(C)c(C(=O)c2ccc(N)c(C(=O)O)c2)n2ccccc12	-1.8%&37.8%
O=C(O)Cc1cn([C@@H]2OC[C@@H](O[C@@H]3O[C@H](CO)[C@@H](O)[C@H](O)[C@H]3O)[C@H](O)[C@H]2O[C@@H]2O[C@H](CO)[C@@H](O)[C@H](O)[C@H]2O)c2ccccc12	11.3%[10 µM]
COCCCn1c(-c2ccc(S(=O)(=O)N3CCOCC3)cc2)csc1=Nc1ccccc1	-8.1%
CC(=O)N1CCCc2cc(S(=O)(=O)Nc3ccc(C)c(C)c3)ccc21	i
O=[N+]([O-])c1cc(-c2nc(-c3ccccc3)no2)ccc1NCCc1ccccc1	-22.5%
CN1CC(=O)N(C2CCCC2)Cc2c(NC3CCCC3)ncnc21	0.1%[39.2 µM]
CCCCOCCOCCOCc1cc2c(cc1CCC)OCO2	-12.1%
Cc1ccc(OCCn2c(CCNC(=O)Cc3ccccc3F)nc3ccccc32)cc1	-19.7%
COc1cc(/C=C2\C(=O)Nc3ccccc32)ccc1O	i
CCCn1c(C)cnc1CC1CCN(S(=O)(=O)c2ccccc2)C1 (configuration not stated)	i
CNC(=O)c1cc(C2CC2)nc2c1c(C1CCCN(C(=O)Cc3ccccn3)C1)nn2C (configuration not stated)	i
